Screening results from PubChem.
CapD inh: CapD enzyme inhibition | purified CapD enzyme, fluorescence intensity read-out; stronger effect = lower value; some hits fall short of the stated cut | z-score (no concentration beside the values) | actives 0.23% (n = 140,000) | AID 492967;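 active means z-score under -4 in either of two replicates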;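 further: stock transfer was 100 nL into about 40 µL; score is relative to mean and spread of the plate; one replicate is shown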
AID504770: E. coli YBA685 growth inhibition, screen for V. cholerae RctB inhibitors. z-score (no concentration beside the values). actives 0.27% (n = 130,000). AID 504770. E. coli YBA685 rctB-dependent plasmid, OD600 growth, 3 h; stronger effect = lower value;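 active means z-score under -2 on both plates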;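 further: wells of about 30 µL received 100 nL stock; score is relative to mean and SD of the test wells; the first replicate is given; strong numbers were not always called active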
An asterisk follows results filed as active; i = inactive; · = no result given; & = joins results of further samples.

Each structure is followed by: CapD inh | AID504770
O=S(=O)(NC(c1ccccc1)c1ccccc1)c1ccc(-n2cnnn2)cc1
    -0.33 | 0.7
CCc1c(C(=O)c2ccc(Cl)cc2)oc2ccc3c(C)cc(=O)oc3c12
    0.2 | ·
O=S(=O)(c1cccc(Br)c1)N1CCN(Cc2ccc(Oc3ccccc3)cc2)CC1
    -0.62 | ·
Brc1cccc(-c2csc(Nc3cccnc3)n2)c1
    0.42 | ·
CCCCNC(=O)Cn1ncc2c(=O)oc3ccc(C)cc3c21
    0.11 | 0.8
COc1ccccc1CN(C)C(=O)c1cnc(C)cn1
    · | 0.05
CCNC(=O)N1CCc2nc3ccncc3cc2C1
    -0.17 | ·
COC(=O)C1=C(N)N(c2ccc(S(N)(=O)=O)cc2)C2=C(C(=O)CCC2)C1c1ccc2c(c1)OCO2 (centres undefined)
    -0.08 | ·
N#CCSc1nc(N)c(C#N)c(-c2cccc(F)c2)c1C#N
    14 | 0.05
O=C(c1nn(Cc2ccccc2)c(=O)c2ccccc12)N1CCCCC1
    · | -0.2
O/N=C/c1c(F)cccc1F
    0.065 | -0.9
CCOC(=O)CCc1c(C)c(C#N)c2nc3ccccc3n2c1C
    2.9 | -0.85
O=C(CSc1nnc(Cc2ccccc2)o1)N1CCCc2ccccc21
    0.08 | -0.45
CCN1CN=C(SCc2c(Cl)cccc2Cl)NC1
    0.56 | ·
O=C(Cc1ccc(Cl)cc1)NCCS(=O)c1ccc(Cl)cc1 (centres undefined)
    0.065 | ·
CCOC(=O)C(C)Oc1ccc(S(N)(=O)=O)cc1 (centres undefined)
    0.35 | -0.35
O=C(c1ccco1)c1cn(Cc2ccc(Cl)cc2)c2ccccc12
    3 | -0.5
CN(C)CCC(c1ccccc1)c1ccccn1 (centres undefined)
    -0.68&-0.87 | 0.45
CCOC(=O)C1=C(C)NC(=O)NC1c1ccc(OCC(=O)N2CCOCC2)c(OC)c1 (centres undefined)
    -0.36 | ·
C=C(C)CSc1nc(N2CCOCC2)c2c(c1C#N)CC(C)(C)OC2
    0.77 | ·
O=C(Nc1ccccc1)N1CCn2cccc2C1c1ccccc1 (centres undefined)
    · | -0.1
CN(C)Cc1ccccc1C#N
    · | -0.35
COc1cccc(S(=O)(=O)NCc2ccco2)c1
    0.19 | -0.2
CSc1nnc(CNC(=O)NCc2ccccc2)n1C(C)C
    · | 1.1
c1ccc2c(c1)COC(CN1CCOCC1)OC2
    0.16 | -0.65
CCOC(=O)C1=C(c2ccccc2)N=C2SCC(=O)N2C1c1ccc(OCC)cc1 (centres undefined)
    2.1 | 0.2
COc1cc(/C=C2/C(=O)ON=C2C)cc(Cl)c1OCc1ccc(C)cc1
    -0.04 | -0.5
Cc1nn(-c2ccc(F)cc2)c(Cl)c1C(=O)OCC#N
    · | -0.15
COc1ccc(C(=O)Nc2nnc(CCS(=O)(=O)c3ccc(C)cc3)s2)cc1OC
    0.29 | ·
O=S(=O)(Nc1ccc2c(c1)OCO2)c1ccc(F)cc1
    -0.33 | -0.95
O=C(CSc1c2c(nc3ccccc13)CCCC2)NCc1ccco1
    34 | -0.95
Clc1cccc(Cl)c1CSc1ncc2ccccn12
    0.06 | ·
CNC(=O)COC(=O)c1ccccc1Oc1ccccc1
    1 | -0.35
CS/C(=C/C(=O)c1cccs1)Nc1ccccc1Cl
    -0.015 | 0.65
Nc1ccc(S(=O)(=O)N2CCCC2)cc1Cl
    0.24 | 0.2
CN(C)CCNC(=O)c1ccc(S(=O)(=O)N2CCCCC2)cc1
    0.06 | -0.15
COc1ccc(C)cc1Nc1nnc(C)c(=O)[nH]1
    0.14 | -0.75
FC(F)(Cl)c1nnc2ccc(Sc3nc4ccccc4s3)nn12
    -0.26 | ·
CCOC(=O)c1c(-c2ccccc2)c2cc(Cl)ccc2[nH]c1=O
    -0.23 | -0.9
COc1ccc(CNCCN(C)C)cc1OC
    · | -1.4
O=C(O)COCC(=O)N1CCC(c2nc(-c3cccnc3)no2)CC1
    -0.46 | ·
CN(C)c1ccc(C(=O)NCc2ccc3c(c2)CCO3)cc1
    0.14 | 1.7
O=C(N1CCCCC1)N1CCN(S(=O)(=O)N2CCCCC2)CC1
    -0.55 | 2.9
Cc1nc2ccc(Cl)cc2c(-c2ccccc2)c1C(=O)N1CCOCC1
    -0.52 | 1.8
CCCn1nc(C(=O)N(C)Cc2cccs2)c2ccccc2c1=O
    · | -0.5
CCN1CCN(CCCNC(=O)C2CCN(c3nc4ccccc4n3Cc3ccc(F)cc3)CC2)CC1
    0.12 | -0.5
Cc1cc(C)c(C#N)c(SCCN2CCCCC2)n1
    -0.01 | -0.4
CC(C)(C)OC(=O)N1CC=C2C(C1)C(c1cccc(F)c1)C(C#N)=C(N)C2(C#N)C#N (centres undefined)
    · | 0.75
Cc1oc(-c2ccc3c(c2)OCCO3)cc1C(=O)NCC(=O)O
    0.25 | 0.2
Cc1ccc(S(=O)(=O)N2CCOCC2)cc1C(=O)OCc1nc2ccc(Cl)cc2n1CCO
    · | -0.45
CCOc1ccc(-n2c(=S)sc3c2nc(SCC(=O)Nc2ccc(OC)cc2OC)n2c4ccccc4nc32)cc1
    -0.01 | ·
Fc1ccc(N=c2scc(-c3ccc(-c4ccccc4)cc3)n2CCc2ccccc2)cc1
    -0.28 | ·
N#Cc1ccc(-c2csc(NC(=O)C3CCCCC3)n2)cc1
    i | -0.8
CC(=O)N1CCOc2cc(S(=O)(=O)NCCc3cccc(C)c3)ccc21
    -0.71 | 0.35
N#CNC1=NC(c2ccccc2)C2=C(N1)/C(=C\c1ccccc1)CCC2 (centres undefined)
    · | 0.35
O=C(CCCn1c(=O)oc2ccccc21)N1CCc2ccccc2C1
    · | -0.3
Brc1cccc(-c2nnc(CN3CCc4ccccc4C3)o2)c1
    -0.2 | -0.2
O=C(OCCN1C(=O)c2cccc3c(N4CCOCC4)ccc(c23)C1=O)c1cccc(Cl)c1
    1.3 | ·
CCCCNC(=O)c1ccc2[nH]c(C)c(C)c2c1
    2 | 0
CCOC(=O)c1cnc2c(ccc3ccccc32)c1NCC(C)C
    0.22 | -0.15

The listing continues.
Each structure is followed by: CapD inh | AID504770
COc1ccc2oc(C)c(C(=O)CSc3ccccc3)c2c1
    -0.6 | -0.5
CCCN1C(=O)/C(=C/c2cc(Br)c(O)c(OCC)c2)NC1=S
    -0.17 | 1.5
CCn1c2ccccc2c2cc(P(=S)(OC)OC)ccc21
    · | 0.85
COc1ccc(C2=NN(C(=O)CNc3cccc4ccccc34)C(c3ccco3)C2)cc1 (centres undefined)
    · | 0.25
Cc1ccnc(NC(=O)CCSc2ccccc2)c1
    0.45 | -0.55
CCCCn1c(C2CC(=O)N(c3ccccc3)C2)nc2ccccc21 (centres undefined)
    -0.47 | -0.7
Cc1cc(C)n(CC(=O)Nc2ccccc2C)c(=O)n1
    -0.29 | -0.95
C=C(C)Cn1c(-c2ccco2)nc2ccccc21
    15 | -0.85
CC1(C)S[C@@H]2[C@H](NC(=O)[C@H](C(=O)O)c3ccsc3)C(=O)N2[C@H]1C(=O)O
    -0.17 | ·
CCCCc1nnc(NC(=O)CCN2C(=O)/C(=C\c3ccco3)SC2=S)s1
    · | -0.45
O=C1NC2(CCCCC2)C(=O)N1Cc1nnc(-c2ccccc2)o1
    · | -0.55
O=C(CN(C1CCCCC1)S(=O)(=O)c1ccc(F)cc1)NCC1CCCO1 (centres undefined)
    0.075 | 0.2
CN(C)C(=O)CN(C#N)c1nc(Cl)nc(N(C)C)n1
    · | -0.15
Cn1cnc(S(=O)(=O)N(Cc2ccccc2)Cc2cccs2)c1
    0.55 | -0.45
O=C(CN1C(=O)C2(OCCO2)c2cc(Br)ccc21)c1cccc2ccccc12
    -0.82 | ·
CCOc1ccc(NC(=O)CSc2nc(=O)n(Cc3ccco3)c3c2CCCC3)cc1
    · | -0.4
CCCC1(C(=O)O)NC(c2ccccc2O)C2C(=O)N(Cc3ccccc3)C(=O)C21 (centres undefined)
    -1 | -0.3
O=C(NCCN1CCOCC1)c1cccc2c1OCCCO2
    0.34 | -0.5
C=CCSc1nnc(-c2cc(N(C)C)nc(N(C)C)n2)n1C
    26 | ·
O=C(NCc1ccco1)c1ccc2c(c1)ncn2-c1ccc(OCc2ccccc2)cc1
    -0.015 | ·
COc1cc2c(cc1OC)C(c1ccccc1)NCC2 (centres undefined)
    0.22 | -0.6
Cc1onc(-c2ccccc2)c1C(=O)N1CCNCC1
    -0.075 | 0.3
CCOC(=O)c1c(NC(=O)CSc2nnc(CNC(=O)c3cc(OC)cc(OC)c3)n2C)sc2c1CCCC2
    -0.45 | ·
CCOc1ccc(N2C(=O)NC(=O)/C(=C\c3ccc(O)c(OCC)c3)C2=O)cc1
    -1.6 | ·
CC1(C)C(c2ccccc2)=[N+]([O-])C2(CCCCC2=O)N1O (centres undefined)
    -1.1 | 2
CCOC(=O)C1=C(C)NC2=C(C(=O)c3ccccc32)C1c1ccc(OC)c(OC)c1 (centres undefined)
    0.8 | ·
COc1ccc(CC(=O)Nc2nnc(SCC(=O)Nc3ccccc3C(F)(F)F)s2)cc1
    -0.13 | ·
O=C(NC1CCCCCC1)c1cc2ccccc2c(=O)[nH]1
    · | -0.35
CCCN1CCC(N(C(=O)c2ccc(NC(=O)c3ccc(C(C)(C)C)cc3)cc2)C2CC2)CC1
    -0.38 | ·
CSc1nn(-c2ccccc2)cc1-c1nc(-c2ccccc2)cs1
    50 | 0.5
CCOC(=O)C1=NN(c2ccccc2)C(=O)C12CC(C)=C(C)CS2 (centres undefined)
    · | -0.85
Cc1cc(C)cc(OCC(=O)NCCN2CCOCC2)c1
    · | -0.7
COC(=O)c1ccccc1NC(=O)C(C)n1c(C(F)(F)F)nc2ccccc21 (centres undefined)
    0.01 | ·
Cc1cc(N2CCCC2)nc2ccc(NC(=S)NC(C)C)cc12
    1.1 | -1
O=C(c1ccc2c(c1)N(Cc1ccccc1)CCS2)N1CCCCC1
    35 | -0.55
CC(SCc1n[nH]c(=O)[nH]1)C(=O)Nc1nccs1 (centres undefined)
    -0.24 | -0.1
CCOC(=O)c1sc(NC(=O)c2cccs2)cc1C
    · | 0.25
CC(=O)Nc1ccc([N+](=O)[O-])cc1-c1nc2cc(C)c(C)cc2[nH]c1=O
    -1.4 | ·
CCn1c(C(=O)N2CCCCC2)cc2sccc21
    -0.57 | -0.8
CCCCn1c(CCCO)nc2ccccc21
    0.38 | 0.9

6 consecutive entries already listed, quoted:
Each structure is followed by: CapD inh | AID504770
O=C(c1ccc2c(c1)N(Cc1ccccc1)CCS2)N1CCCCC1
    35 | -0.55
CC(SCc1n[nH]c(=O)[nH]1)C(=O)Nc1nccs1 (centres undefined)
    -0.24 | -0.1
CCOC(=O)c1sc(NC(=O)c2cccs2)cc1C
    · | 0.25
CC(=O)Nc1ccc([N+](=O)[O-])cc1-c1nc2cc(C)c(C)cc2[nH]c1=O
    -1.4 | ·
CCn1c(C(=O)N2CCCCC2)cc2sccc21
    -0.57 | -0.8
CCCCn1c(CCCO)nc2ccccc21
    0.38 | 0.9

The results go on:
Each structure is followed by: CapD inh | AID504770
Cc1ccc(C(=O)NCC(=O)OCc2c(F)cccc2Cl)s1
    -0.11 | -0.55
COc1ccc(C(NC(C)=O)c2ccc3cccnc3c2O)cc1 (centres undefined)
    -0.015 | -2.1
CCN(CC)S(=O)(=O)c1ccc(C(=O)Nc2sc3c(c2-c2nc4ccccc4s2)CCCC3)cc1
    0.44 | ·
O=C(COc1ccccc1)NCc1cccs1
    -0.73 | 1.1
Cc1cc(C)n(-c2nnc(C)n2NS(=O)(=O)c2ccc(F)cc2)n1
    · | -0.95
Cc1ccc2nc(C)c(CN3CCN(C(=O)/C=C/c4ccc(C#N)cc4)CC3)n2c1
    · | -0.95
C=CCn1c(SCC(=O)NCc2ccc3c(c2)OCO3)nc2scc(-c3ccc(F)cc3)c2c1=O
    -0.57 | ·
CCOC(=O)CC1=CSC2=NCCN12
    1.1 | 0.3
CCOC(=O)c1[nH]c(C)c(C(C)=O)c1C
    -0.91 | ·
Cc1cccc(N(CC(=O)Nc2ccc(S(=O)(=O)N3CCOCC3)cc2)S(=O)(=O)c2ccccc2)c1C
    0.39 | ·
CCCN(CCC)C(=O)c1ccc2c(c1)N(Cc1ccccc1C)C(=O)c1ccccc1S2=O (centres undefined)
    -0.37 | -0.9
C=CCOC(=O)C1=C(C)NC(SCC(=O)Nc2cc(C)ccc2C)=C(C#N)C1c1ccco1 (centres undefined)
    41 | ·
CC(=O)Nc1ccc(C(=O)NCCCN2CCCCC2C)cc1NC(C)=O (centres undefined)
    -0.82 | ·
CC(=O)Oc1ccc2c(c1)C(=O)c1cc(OC(C)=O)ccc1-2
    0.08 | ·
Cc1ccc(NC(=O)CN(C)C(=O)Cc2c[nH]c3ccccc23)cc1
    · | -0.2
CC(=O)NCc1ccc(C(=O)COC(=O)/C=C/c2cccs2)o1
    · | -2.1
Brc1ccccc1-c1nc2ccccc2c2nc3ccccc3n12
    -0.71 | -0.25
CCOC(=O)Cn1c(=O)c(=O)n(CCOC)c2ccc(C(F)(F)F)cc21
    1.3 | ·
Clc1ccccc1CNCc1ccncc1
    · | -0.5
NC(=O)C1(N2CCCCC2)CCN(C(=O)c2ccc3c(=O)n(Cc4ccco4)c(=S)[nH]c3c2)CC1
    0.23 | ·

An excerpt from above in order of SMILES length, descending.
Each structure is followed by: CapD inh | AID504770
Cc1ccc(NC(=O)CN(C)C(=O)Cc2c[nH]c3ccccc23)cc1
    · | -0.2
COc1ccc(C(NC(C)=O)c2ccc3cccnc3c2O)cc1 (centres undefined)
    -0.015 | -2.1
Clc1ccccc1CNCc1ccncc1
    · | -0.5

More structures follow.
Each structure is followed by: CapD inh | AID504770
O=C(c1ccco1)c1cn(CC(=O)N2CCc3ccccc3C2)c2ccccc12
    · | 1.6
CCN(Cc1ccncc1)S(=O)(=O)c1cc(C(C)(C)C)ccc1C
    · | -0.65
Cc1ccc(-c2cc(C(F)(F)F)c3c(N)c(C(=O)c4ccc5c(c4)OCO5)sc3n2)o1
    -2.7 | 1.3
CN(C)c1ccc(/C=c2/sc3n(c2=O)NC2(c4ccccc4)N(C)C(=O)N(C)C2(c2ccccc2)N=3)cc1 (centres undefined)
    -0.19 | ·
